Screening data: PubChem, National Center for Advancing Translational Sciences (NCATS)
Six1-Eya2 blk: blocks human Six1 binding to Eya2; Q15475+O00167; AlphaScreen GST-Six1/His-Eya2 binding, biochemical; hits give low values; control for the full effect not named in the record; activity change, % (no concentration beside the values); 360,000 tested, 0.56% active; AID 651725; in the data active = activity change below about -65%; inconclusive = about -30% to -65%; inactive = above about -30%; also: % is scaled to controls: 0 for no effect and ±100 for the full control effect; compound concentration not given in the record
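Homogeneous AlphaScreen proximity assay pairing GST-Six1 with His-tagged Eya2 (added as 5X mix: 250 nM and 500 nM) in 50 mM Tris pH 8.0, 300 mM NaCl, 1 mM TCEP. Glutathione donor and nickel acceptor beads; 1 h, 37 °C, dark.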
D2 agonist: human D2 receptor agonism in beta-arrestin assay. DiscoveRx PathHunter D2 beta-arrestin, luminescence, 90 min; 100% = 57 uM dopamine signal. activation, % (no concentration beside the values). 360,000 tested, 0.084% active; in the data active = activation above about 40%; inconclusive = about 15% to 40%; inactive = below about 15%; also: compound concentration not given in the record; the text of the record calls up to 30% inactive
Target sequence (P14416 whole entry, looked up): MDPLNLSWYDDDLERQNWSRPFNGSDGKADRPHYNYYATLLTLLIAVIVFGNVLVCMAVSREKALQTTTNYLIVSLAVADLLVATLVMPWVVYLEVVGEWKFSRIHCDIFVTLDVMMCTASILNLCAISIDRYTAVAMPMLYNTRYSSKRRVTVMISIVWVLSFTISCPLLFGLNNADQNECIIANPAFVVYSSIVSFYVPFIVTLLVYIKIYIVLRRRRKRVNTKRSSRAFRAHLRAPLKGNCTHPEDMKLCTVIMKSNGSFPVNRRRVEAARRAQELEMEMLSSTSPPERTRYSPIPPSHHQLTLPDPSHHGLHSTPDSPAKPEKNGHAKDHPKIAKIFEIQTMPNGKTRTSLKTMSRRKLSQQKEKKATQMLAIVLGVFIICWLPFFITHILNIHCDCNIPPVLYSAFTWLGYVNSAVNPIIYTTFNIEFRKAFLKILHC
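DiscoveRx PathHunter D2 beta-arrestin cells (2,100/well) attached overnight, then compound-stimulated 90 min at 37 C in HBSS/10 mM HEPES/0.1% Tween-20 buffer; beta-galactosidase complementation read by luminescence after 1 h at ambient temperature. Dopamine 57 uM final (EC100) as control.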
D2 potentiator: positive allosteric modulators of human D2 dopamine receptor; P14416; AID 624464; DiscoveRx D2 beta-arrestin cells, luminescence, 90 min; 100% = 57 uM dopamine signal; potentiation, % (test concentration not listed); 360,000 tested, 0.23% active; active = potentiation of 50% or more; inconclusive = 30% to 50%; inactive = 30% or less;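 also: compound concentration not given in the record; tested on top of an EC20 dose of dopamine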
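D2 cells co-treated with compound plus 50 nM dopamine (EC20) for 90 min at 37 deg C to detect potentiation. Beta-arrestin recruitment was read as enzyme-fragment luminescence after 1 h at ambient temperature. Full response was set by 57 uM dopamine.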
CtBP-E1A blk: blocks the CtBP interaction with E1A; 340,000 tested, 0.49% active; AID 651724; activity change, % (test concentration not listed); AlphaScreen GST-E1A/His-CtBP binding, 1536-well; hits give low values; control for the full effect not named in the record; in the data active means activity change below about -65%; inconclusive means about -30% to -65%; inactive means above about -30%; also: % is scaled to controls: 0 for no effect and ±100 for the full control effect; compound concentration not given in the record
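AlphaScreen with 125 nM GST-E1A and 125 nM His-CtBP (5X stocks) in Tris pH 8.0, 300 mM NaCl, BSA, Tween 20, TCEP. Compounds preincubated 2 h at 37 deg C, then glutathione donor/nickel acceptor beads added for 1 h at 37 deg C in dark.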
TRPML1 ag: human mucolipin-1 channel agonism; TRPML1-expressing cells, Ca2+ dye fluorescence, FDSS; host cell line not named in the record; reference of the full effect not given here; Q9GZU1; activation, % (test concentration not listed); 410,000 tested, 0.12% active; AID 624414; in the data active = activation above about 50%; inconclusive = about 30% to 50%; inactive = below about 30%; also: 0% is about no effect; the text of the record puts the active cut at 80%
Target sequence (Q9GZU1 whole entry, looked up): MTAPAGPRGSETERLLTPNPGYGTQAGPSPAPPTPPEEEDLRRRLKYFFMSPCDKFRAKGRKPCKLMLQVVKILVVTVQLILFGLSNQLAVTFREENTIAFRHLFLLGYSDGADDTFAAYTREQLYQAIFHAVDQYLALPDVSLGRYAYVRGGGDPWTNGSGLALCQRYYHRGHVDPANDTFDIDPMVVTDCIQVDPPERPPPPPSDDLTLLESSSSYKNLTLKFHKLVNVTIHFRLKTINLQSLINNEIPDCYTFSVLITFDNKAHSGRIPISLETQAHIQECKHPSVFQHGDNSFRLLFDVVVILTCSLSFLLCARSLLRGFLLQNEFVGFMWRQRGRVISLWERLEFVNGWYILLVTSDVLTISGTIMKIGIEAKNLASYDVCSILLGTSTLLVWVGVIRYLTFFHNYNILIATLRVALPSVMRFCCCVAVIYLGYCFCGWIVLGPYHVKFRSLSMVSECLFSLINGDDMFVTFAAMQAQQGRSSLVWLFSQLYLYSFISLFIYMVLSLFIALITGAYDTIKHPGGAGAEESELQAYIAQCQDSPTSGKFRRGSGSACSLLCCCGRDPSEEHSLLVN
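Agonist activity was taken from a 110 s kinetic Ca2+ dye read on the FDSS after pinning compounds onto TRPML1-DL cells. The cells were seeded at 1,500/well with Tet inducer, incubated about 16 h, then dye-loaded at room temperature.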
PINK1 modulator: modulators of PINK1 expression; Potency, µM (top dose mostly 76.6 µM), without a hit: at the highest dose activation (PINK1 increase), most hits filed as activators; PINK1 immunofluorescence, high-content cytometry, 24 h; 410,000 tested, 0.2% active; active = well fitted activation curve with a large enough effect; inconclusive = small, poorly fitted or top-dose-only effect; inactive = flat fitted curve, though single readings scatter; cell line not stated here;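 also: potency is read from the fitted curve at half-maximal effect; % of control where 0% means no effect; nearly all actives have a fitted effect of over 65% in size; a mitochondrial uncoupler was the plate control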
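Decision-based qHTS: stable cells, 24 h exposure to five compound concentrations, CCCP as control. Fixed cells stained for PINK1 plus nuclear, mitochondrial and cell markers, cytometer read.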
The depositor's hits bear a star; & = joins results of further samples; [ ] = dose if it differs, or a comment.

What do the screens show for `CCc1ccc(C(O)c2ncc(-c3cccc(C)c3)[nH]2)cc1` (stereo not given)?
Six1-Eya2 blk: -12; D2 agonist: -4.5; D2 potentiator: -17; CtBP-E1A blk: -7; TRPML1 ag: -0.7; PINK1 modulator: 1.3%

What do the screens show for `COc1ccc(C(=O)Nc2cccc(C(=O)N3CCCCC3)c2)cc1`?
Six1-Eya2 blk: -9; D2 agonist: -9.1; D2 potentiator: -31; CtBP-E1A blk: 5; TRPML1 ag: 1.2; PINK1 modulator: -1.1%

How did CSc1sc(C)cc1C1C(C#N)=C(N)N(c2cccnc2)C2=C1C(=O)CCC2 (stereo not given) do in these assays?
Six1-Eya2 blk: inconclusive; D2 agonist: 2.5; D2 potentiator: 2; CtBP-E1A blk: inconclusive; TRPML1 ag: -0.2; PINK1 modulator: 3.2%[38.3 µM]

Results for CCCCNC(=S)N(CCN(CC)CC)Cc1cc2cc3c(cc2[nH]c1=O)OCO3 ?
Six1-Eya2 blk: 17; D2 agonist: -2.7; D2 potentiator: -2; TRPML1 ag: 0.0; PINK1 modulator: 0.1%

How did COc1ccccc1CN1CCCC(CN(CCN(C)C)C(=O)C2CCCC2)C1 (stereo not given) do in these assays?
Six1-Eya2 blk: 8; D2 agonist: -3.3; D2 potentiator: 3; CtBP-E1A blk: -5; TRPML1 ag: -0.6; PINK1 modulator: -0.3%

How did O=S(=O)(Nc1cccc(-n2cnnn2)c1)c1ccc(Cl)nc1 do in these assays?
Six1-Eya2 blk: 1; D2 agonist: -11; D2 potentiator: 1; CtBP-E1A blk: 1; TRPML1 ag: -0.9; PINK1 modulator: -1.5%

What do the screens show for `CCc1ccc(C(=O)COC(=O)CNC(=O)COc2ccccc2)cc1`?
Six1-Eya2 blk: 7; D2 agonist: -1.2; D2 potentiator: -2; CtBP-E1A blk: -22; TRPML1 ag: -1.1&-0.9; PINK1 modulator: 0.9%&3.9%

Results for CSc1ccccc1OCc1cc(C(=O)N2CCCC2c2nonc2C)no1 (stereo not given) ?
Six1-Eya2 blk: -2; D2 agonist: 3.7; D2 potentiator: -1; CtBP-E1A blk: -7; TRPML1 ag: -0.2; PINK1 modulator: -0.6%

How did COc1ccccc1/C=N/NC(=O)c1ccccc1Cl do in these assays?
Six1-Eya2 blk: 14; D2 agonist: -5.7; D2 potentiator: -14; CtBP-E1A blk: 3; TRPML1 ag: 1.3; PINK1 modulator: -1.6%

How did CCCc1nnc(SCC(=O)Nc2cc(C)on2)n1CCOC do in these assays?
Six1-Eya2 blk: 9; D2 agonist: -3.9; D2 potentiator: -5; CtBP-E1A blk: 0; TRPML1 ag: 0.7; PINK1 modulator: 3.9%

Results for O=C(NCc1ccccc1Cl)c1ccc2ccccc2n1 ?
Six1-Eya2 blk: 12; D2 agonist: -2.2; D2 potentiator: -1; CtBP-E1A blk: 6; TRPML1 ag: 2.0; PINK1 modulator: 1.0%

What do the screens show for `Cc1nn(Cc2ccccc2)c(C)c1NC(=O)Cn1nc([N+](=O)[O-])c(Cl)c1C`?
Six1-Eya2 blk: 3; D2 agonist: 2.6; D2 potentiator: 8; CtBP-E1A blk: 11; TRPML1 ag: 0.5

What do the screens show for `CCC(=O)Nc1nc2nc(-c3ccccc3)cc(=O)n2[nH]1`?
Six1-Eya2 blk: -10; D2 agonist: 8.6; D2 potentiator: -2; CtBP-E1A blk: -6; TRPML1 ag: 1.0; PINK1 modulator: -0.4%

Results for CCOC(=O)c1cc2c(s1)-c1ccccc1CC2 ?
Six1-Eya2 blk: 60; D2 agonist: -3.7; D2 potentiator: 3; CtBP-E1A blk: 35; TRPML1 ag: 0.9; PINK1 modulator: 18%

Results for O=C(Nc1ccc(NC(=O)c2ccccc2Cl)nc1)c1ccncc1 ?
Six1-Eya2 blk: 1; D2 agonist: -3.2; D2 potentiator: -7; TRPML1 ag: 0.1; PINK1 modulator: -0.8%

Results for CCN(CC(=O)NCc1cccs1)C(=O)CCc1c[nH]c2ccccc12 ?
Six1-Eya2 blk: 4; D2 agonist: -5.7; D2 potentiator: 0; CtBP-E1A blk: -5; TRPML1 ag: -0.9; PINK1 modulator: 1.7%

How did Cc1nn(S(=O)(=O)c2ccccc2)c(C)c1S(=O)(=O)N1CCC(C)CC1 do in these assays?
Six1-Eya2 blk: 4; D2 agonist: -5.3; D2 potentiator: -4; CtBP-E1A blk: 9; TRPML1 ag: 0.4&-0.1; PINK1 modulator: -0.6%&1.5%

Results for COc1c(OC(C)=O)ccc(/C=C/c2ccc3ccccc3n2)c1[N+](=O)[O-] ?
Six1-Eya2 blk: -27; D2 agonist: -8.4; D2 potentiator: -27; CtBP-E1A blk: inconclusive; TRPML1 ag: 1.8; PINK1 modulator: 10µM*

How did Cc1c(C#N)c(N=CN(C)C)c(C(=O)c2ccccc2)n1-c1ccccc1 do in these assays?
Six1-Eya2 blk: -3; D2 agonist: 0.2; D2 potentiator: 4; CtBP-E1A blk: 2; TRPML1 ag: -0.8; PINK1 modulator: -1.5%

What do the screens show for `CCN(Cc1ccccc1)C(=O)CN1C(=O)COc2ccc(S(=O)(=O)NC3CCCC3)cc21`?
Six1-Eya2 blk: 3; D2 agonist: 0.4; D2 potentiator: -7; CtBP-E1A blk: 6; TRPML1 ag: 0.4&0.5; PINK1 modulator: 0.1%&1.4%

Results for CCOC(=O)N1CCN(Cc2cc(=O)oc3ccc(Cl)cc23)CC1 ?
Six1-Eya2 blk: 2; D2 agonist: -0.3; D2 potentiator: 4; CtBP-E1A blk: 2; TRPML1 ag: 0.2; PINK1 modulator: 1.1%[38.3 µM]

Results for CCOC(=O)N1CCN(C(=O)C[C@@H]2C[C@@]3(C(=O)OC)CCCCC=C3N(CCC3=CCCCC3)C2=O)CC1 ?
Six1-Eya2 blk: -6; CtBP-E1A blk: -2; TRPML1 ag: -1.2; PINK1 modulator: 2.3%

What do the screens show for `COc1ccc(NC(=O)CN2CCN(CC(=O)Nc3ccc(OC)cc3)CC2)cc1`?
Six1-Eya2 blk: -1; D2 agonist: -2.7; D2 potentiator: -3; CtBP-E1A blk: 3; TRPML1 ag: -0.4; PINK1 modulator: 0.1%

What do the screens show for `O=C(NN=C(c1ccccc1)c1ccccc1)C(CCl)C1CCCCC1` (stereo not given)?
Six1-Eya2 blk: 16; D2 agonist: -3.2; D2 potentiator: -3; CtBP-E1A blk: 4; TRPML1 ag: 0.4; PINK1 modulator: 1.2%

Retrieved by compound from the list above (4):
What do the screens show for `CCC(=O)Nc1nc2nc(-c3ccccc3)cc(=O)n2[nH]1`?
Six1-Eya2 blk: -10; D2 agonist: 8.6; D2 potentiator: -2; CtBP-E1A blk: -6; TRPML1 ag: 1.0; PINK1 modulator: -0.4%

What do the screens show for `COc1ccc(NC(=O)CN2CCN(CC(=O)Nc3ccc(OC)cc3)CC2)cc1`?
Six1-Eya2 blk: -1; D2 agonist: -2.7; D2 potentiator: -3; CtBP-E1A blk: 3; TRPML1 ag: -0.4; PINK1 modulator: 0.1%

Results for CCOC(=O)N1CCN(C(=O)C[C@@H]2C[C@@]3(C(=O)OC)CCCCC=C3N(CCC3=CCCCC3)C2=O)CC1 ?
Six1-Eya2 blk: -6; CtBP-E1A blk: -2; TRPML1 ag: -1.2; PINK1 modulator: 2.3%

How did Cc1nn(S(=O)(=O)c2ccccc2)c(C)c1S(=O)(=O)N1CCC(C)CC1 do in these assays?
Six1-Eya2 blk: 4; D2 agonist: -5.3; D2 potentiator: -4; CtBP-E1A blk: 9; TRPML1 ag: 0.4&-0.1; PINK1 modulator: -0.6%&1.5%

(continued)
What do the screens show for `C/C(=N\NC(=O)c1ccc(NS(=O)(=O)c2cccs2)cc1)c1ccncc1`?
Six1-Eya2 blk: 2; D2 agonist: -14; D2 potentiator: 1; CtBP-E1A blk: 11; TRPML1 ag: -0.5; PINK1 modulator: -0.4%

Results for Cc1cccc(OCC(=O)NCCCNC(=O)c2ccncc2)c1 ?
Six1-Eya2 blk: 1; D2 agonist: 1.9; D2 potentiator: 9; CtBP-E1A blk: 2; TRPML1 ag: 0.0; PINK1 modulator: -0.9%

Results for O=c1c2ccccc2ncn1-c1ccc(Cl)cc1 ?
Six1-Eya2 blk: -19&-1; D2 agonist: -2.2&-1.1; D2 potentiator: -19&-2; CtBP-E1A blk: -2; TRPML1 ag: -0.4&4.2; PINK1 modulator: -0.2%&1.0%

What do the screens show for `O=C(COc1ccc(S(=O)(=O)N2CCOCC2)cc1)Nc1cccc([N+](=O)[O-])c1`?
Six1-Eya2 blk: -1; D2 agonist: -0.8; D2 potentiator: -26; CtBP-E1A blk: -11; TRPML1 ag: 0.9; PINK1 modulator: 2.9%

How did COc1cc(OC)c(NC(=O)CS(=O)(=O)Cc2nc(-c3ccc(C)cc3)oc2C)cc1Cl do in these assays?
Six1-Eya2 blk: 1; D2 agonist: -2.0; D2 potentiator: -2; CtBP-E1A blk: 4; TRPML1 ag: -0.3; PINK1 modulator: 3.6%

Results for COc1ccc(/C=C/C(=O)c2ccc(C(=O)/C=C/c3ccc(OC)c(OC)c3)cc2)cc1OC ?
Six1-Eya2 blk: 4; D2 agonist: 6.4; D2 potentiator: -2; CtBP-E1A blk: -2; TRPML1 ag: 5.2; PINK1 modulator: 15%

What do the screens show for `CCc1ccc2[nH]c3nc(N/N=C/c4ccc(O)cc4O)nnc3c2c1`?
Six1-Eya2 blk: inconclusive; D2 agonist: 1.0; D2 potentiator: -15; CtBP-E1A blk: -81*; TRPML1 ag: 0.0; PINK1 modulator: 12%

What do the screens show for `O=C1c2ccccc2C(=O)N1CCN1CCOCC1`?
Six1-Eya2 blk: 0; D2 agonist: 2.0; D2 potentiator: 2; CtBP-E1A blk: 4; TRPML1 ag: 0.7; PINK1 modulator: 0.0%

Results for O=C(Nc1nccs1)c1ccc(CSc2ccccc2)o1 ?
Six1-Eya2 blk: -16; D2 agonist: 3.9; D2 potentiator: -10; CtBP-E1A blk: -9; TRPML1 ag: 2.5; PINK1 modulator: 1.8%

Results for O=C(CCN1C(=O)NC2(CCCC2)C1=O)Nc1ccc(Sc2ccc(Br)cc2)cc1 ?
Six1-Eya2 blk: -4; D2 agonist: -1.6; D2 potentiator: -8; CtBP-E1A blk: 1; TRPML1 ag: -1.0; PINK1 modulator: 23%

What do the screens show for `O=C(NCC1CCCO1)C1CCCN1C(=O)Nc1ccc(Cl)c(Cl)c1` (stereo not given)?
Six1-Eya2 blk: 1; D2 agonist: -0.8; D2 potentiator: -11; CtBP-E1A blk: 7; TRPML1 ag: -0.8; PINK1 modulator: 0.2%

What do the screens show for `CC1CN(CC(O)COC(c2ccccc2)c2ccccc2)CC(C)O1` (stereo not given)?
Six1-Eya2 blk: 4; D2 agonist: 6.1; D2 potentiator: -16; CtBP-E1A blk: -12; TRPML1 ag: 1.2; PINK1 modulator: 0.5%

What do the screens show for `COc1ccc(N2CCN(C(=O)CCC(=O)N3CCOc4ccc(C)cc43)CC2)cc1`?
Six1-Eya2 blk: -8; D2 agonist: 2.0; D2 potentiator: -11; CtBP-E1A blk: -1; TRPML1 ag: 0.2; PINK1 modulator: 0.0%
